# ASAP1 GAP inh: blocks human ASAP1-stimulated Arf1 GTP hydrolysis. Q9ULH1. GDP FP detection. inhibition, % at 16.5 µM. 360,000 tested, 0.19% active; in the data active = inhibition above about 25%;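 also: 0% = vehicle with enzyme and substrate and 100% = no enzyme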
# Target sequence (Q9ULH1 325-724 limits assumed): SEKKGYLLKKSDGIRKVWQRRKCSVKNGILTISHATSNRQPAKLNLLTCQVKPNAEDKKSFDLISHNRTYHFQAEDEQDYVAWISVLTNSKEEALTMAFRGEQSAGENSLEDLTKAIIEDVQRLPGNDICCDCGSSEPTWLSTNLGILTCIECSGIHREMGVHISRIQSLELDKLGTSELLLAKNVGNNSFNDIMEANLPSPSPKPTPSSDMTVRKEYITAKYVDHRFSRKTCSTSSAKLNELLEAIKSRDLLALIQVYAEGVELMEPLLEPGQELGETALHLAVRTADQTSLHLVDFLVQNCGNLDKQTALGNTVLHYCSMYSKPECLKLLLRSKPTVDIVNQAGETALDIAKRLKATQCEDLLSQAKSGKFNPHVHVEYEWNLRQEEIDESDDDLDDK
# Rev-erbA mod: modulators of human Rev-erb alpha DNA binding; activity, % at 10 µM; AID 1259318; 370,000 tested, 0.79% active; Rev-erbα–FITC-DNA binding, fluorescence polarization, 90 min;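 active = activity above about 14%, limit read from the data; passing the limit was not always enough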;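 also: 0% = DMSO wells with 35 nM protein and 100% = DMSO wells with 750 nM protein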
# PG9 binder: binds the HIV-1 gp120 antibody PG9; 360,000 tested, 0.43% active; AID 624416; TR-FRET gp120-PG9 antibody binding; inhibition, % at 6.7 µM; in the data active = inhibition above about 8.5%
# ARFGAP1 inhibitor: inhibitors of rat ARFGAP1; Q62848; Arfgap1-stimulated ARF1 GTP hydrolysis, GDP FP detection; inhibition, % at 16.5 µM; 360,000 tested, 0.26% active;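 active = inhibition above a per-plate limit, mean inhibition of low control wells plus 3 SD, cut at about 25% in these data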;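 also: 0% = DMSO wells with enzyme and 100% = wells lacking Arfgap1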
# Target sequence (Q62848 1-136 limits assumed): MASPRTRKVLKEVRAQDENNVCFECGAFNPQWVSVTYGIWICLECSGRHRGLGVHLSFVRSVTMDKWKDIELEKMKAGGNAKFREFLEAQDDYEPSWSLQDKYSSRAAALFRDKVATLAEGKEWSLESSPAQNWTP
#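 material = rat Arfgap1 catalytic domain, aa 1-136 | also added = human ARF1(Δ1-17)-GTP substrate | compound dosing = one concentration, 16.5 µM, DMSO 1.26% | times = GTP hydrolysis reaction 2 h at 25 °C | measured by = FP, GDP Alexa 633 tracer displaced from anti-GDP antibody, 620/688 nm | evaluation = percent inhibition of Arfgap1-stimulated GTP hydrolysis | replication = single well per compound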
# GC-B act: GC-B (human) receptor activation | P20594 | activation, % at 10 µM | HEK293-GC-B cells, CNP EC30, cGMP TR-FRET; 0% at EC30 CNP, 100% saturating CNP | 370,000 tested, 0.11% active;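 active = activation at 10 µM reaching about 35% in either raw or pattern-adjusted values, limit read from the data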
# GC-A act: GC-A (human) enzyme activation; P16066; HEK293 GC-A cells, cGMP TR-FRET, EC30 ANP; 0% at EC30 ANP, 100% saturating ANP; activation, % at 10 µM; 370,000 tested, 0.14% active; AID 1671463; in the data active = activation above about 40%
# SMARCA2 act: SMARCA2 function activation, primary screen; 370,000 tested, 1% active; activation, % at 9.1 µM; MG213 cells, MMTV-luciferase reporter, dexamethasone, overnight; in the data active = activation above about 7.8%;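 also: 0% = vehicle wells and 100% = reference activator wells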
# rCAG binder: binds r(CAG) RNA repeats | inhibition, % at 3 µM | r(CAG) RNA repeat, TO-PRO-1 dye displacement fluorescence | AID 651821 | 370,000 tested, 1.3% active;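 active = inhibition above the plate cutoff, the mean of all test compounds on that plate plus 3 SD, cut at about 35% in these data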;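 also: 0% = DMSO alone and 100% = 100 µM mitoxantrone as full dye displacement; higher means more dye released from RNA so lower well fluorescence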
# mABHD4 FP: ABHD4 (mouse) inhibition, primary FP screen; inhibition, % at 8.92 µM; Q8VD66; purified mABHD4, FP-Rh probe fluorescence polarization; 370,000 tested, 0.54% active; AID 720543;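 active = inhibition exceeding the mean over every tested compound plus 3 SD, cut at about 30% in these data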;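 also: 0% = plate median of compound wells and 100% = S159A mutant with DMSO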
# Target sequence (Q8VD66 whole entry, looked up): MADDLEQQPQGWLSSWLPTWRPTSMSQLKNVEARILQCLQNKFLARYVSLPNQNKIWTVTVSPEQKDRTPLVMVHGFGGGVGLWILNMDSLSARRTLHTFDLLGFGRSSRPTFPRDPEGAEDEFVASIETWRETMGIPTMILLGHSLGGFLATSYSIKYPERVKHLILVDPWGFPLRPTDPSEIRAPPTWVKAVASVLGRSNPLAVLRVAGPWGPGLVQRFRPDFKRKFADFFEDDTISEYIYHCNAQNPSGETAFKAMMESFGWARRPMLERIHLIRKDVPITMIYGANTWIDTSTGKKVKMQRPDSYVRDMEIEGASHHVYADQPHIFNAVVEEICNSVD
#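 Test system: mouse ABHD4 enzyme, wild type. Reagent: FP-Rh fluorescent activity-based probe, added after compound pre-incubation. Timing: pre-incubation 45 min, probe exposure 60 min, at 25 °C. Technique: FP readout, ex 525 nm / em 598 nm. Benchmarks: high control S159A mutant with DMSO, low control median of compound wells.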
# Active calls of the source: *. Not all compounds are listed; rates above refer to the full screens.
# Fields – ARFGAP1 inhibitor	GC-B act	Rev-erbA mod	rCAG binder	ASAP1 GAP inh	mABHD4 FP	SMARCA2 act	GC-A act	PG9 binder
- O=C(N/N=C/c1ccc[nH]1)c1sc2ccccc2c1Cl
 : 7	5	-10	7	-5	10	1	1	-0.5
- COC(=O)c1sc(SC)c2c1CC(C)(C)C/C2=N/O
 : 4	-5	-4	0	8	-7	1	-10	-1.3
- Cc1ccc(N2C(=O)CC(N(O)C3CC(=O)N(c4ccc(C)cc4)C3=O)C2=O)cc1 (centres undefined)
 : 15	0	-2	10	7	-21	-3	7	0.5
- O=C(NC1CCC(O)CC1)c1ccc(-c2ccc([N+](=O)[O-])cc2)o1 (centres undefined)
 : -9	4	1	11	3	1	-1	-3	1.0
- COc1ccc(OC)c2c(C)cc(C)nc12
 : 2	-1	-1	1	9	2	1	4	-1.5
- Cc1cc(C)c2nc(NNC(=O)c3cc(-c4cccs4)nc4ccccc34)sc2c1
 : 8	2	4	37*	-6	10	-4	1	1.6
- O=C(NCCc1nc2ccccc2[nH]1)/C(=C/c1ccco1)NC(=O)c1ccco1
 : 1	7	-2	-2	2	2	-3	-3	-0.4
- CCNC(=S)N/N=C/c1c(Cl)cccc1Cl
 : 0	20	0	0	-5	3	0	15	-2.6
- O=C(CSc1ncnc2c1cnn2-c1ccc(F)cc1)NC1CCCC1
 : 2	1	4	-3	-1	-1	6	3	0.4
- Cc1cccc(C)c1Nc1nnc(SCC(=O)NC(=O)c2cccn2C)s1
 : 8	-1	-4	2	0	10	6	0	-2.6

# No new results follow: entries from further up.
# Fields – ARFGAP1 inhibitor	GC-B act	Rev-erbA mod	rCAG binder	ASAP1 GAP inh	mABHD4 FP	SMARCA2 act	GC-A act	PG9 binder
- O=C(NCCc1nc2ccccc2[nH]1)/C(=C/c1ccco1)NC(=O)c1ccco1
 : 1	7	-2	-2	2	2	-3	-3	-0.4
- CCNC(=S)N/N=C/c1c(Cl)cccc1Cl
 : 0	20	0	0	-5	3	0	15	-2.6
- O=C(CSc1ncnc2c1cnn2-c1ccc(F)cc1)NC1CCCC1
 : 2	1	4	-3	-1	-1	6	3	0.4
- Cc1cccc(C)c1Nc1nnc(SCC(=O)NC(=O)c2cccn2C)s1
 : 8	-1	-4	2	0	10	6	0	-2.6

# More compounds:
# Fields – ARFGAP1 inhibitor	GC-B act	Rev-erbA mod	rCAG binder	ASAP1 GAP inh	mABHD4 FP	SMARCA2 act	GC-A act	PG9 binder
- C=CCNC(=O)c1ccc(-c2ccc([N+](=O)[O-])cc2)o1
 : -7	-2	4	6	-28	8	1	0	-3.1
- O=C(NNC(=O)c1cccc2ccccc12)c1ccccc1O
 : -13	-1	2	2	4	12	0	1	1.2
- C=CCNC(=O)NC(=O)CSc1nnc(C(F)(F)F)n1C
 : 0	0	1	2	-7	-2	-2	-3	-1.2
- COc1cc2c(cc1OC)-c1cc(N3CCCc4ccccc43)nc(=O)n1CC2
 : -7	29	4	-7	4	-5	4	29	0.6
- CCCCc1nc(N2CCOCC2)c(C#N)c2c1COC(C)(C)C2
 : 0	1	0	-9	-2	1	0	1	-1.4
- Cc1cc(C)c(NC(=O)C2CCCN2CCOC(=O)c2cccc([N+](=O)[O-])c2)c(C)c1 (centres undefined)
 : 19	3	1	-5	9	4	-5	0	-0.2
- CCC1(C)Cc2c(sc(NC(=S)NC(=O)c3ccccc3)c2C#N)CO1 (centres undefined)
 : -9	-1	-5	3	10	2	-1	2	-1.0
- COc1cccc2sc3cc(NCc4ccc(C)o4)ccc3c(=O)c12
 : 5	-4	-2	12	9	-7	3	3	1.1
- COc1ccc(N/C(C)=C/C(=O)c2ccccc2)cc1
 : 0	-4	-3	-1	7	3	-1	0	-1.0
- CCOC(=O)/C(=N\O)C1=NC(C)(C)Cc2ccccc21
 : -2	0	1	-3	-1	6	0	-1	-0.8
- O=C(CSc1n[nH]c(-c2cccs2)n1)N1CCCC1
 : -13	1	3	0	-7	2	-1	3	-0.2
- COc1cccc2cc(-c3nc4ccccc4[nH]3)c(=O)oc12
 : 21	8	-17	3	1	-5	2	13	2.3
- O=C1C2C(C(=O)N1CCN1CCN(Cc3ccc([N+](=O)[O-])cc3)CC1)[C@H]1C=C[C@@H]2C1 (some centres undefined)
 : -11	3	0	-2	-3	-6	-7	3	-2.0
- COc1ccc(/C=C/C(=O)OCC(=O)NC2CC2)c(OC)c1
 : -11	2	2	-2	-10	-9	-3	4	0.6
- O=C(NNS(=O)(=O)c1ccccc1)c1ccccc1-n1cccc1
 : 9	0	1	1	2	-6	-2	2	-0.7
- Cc1cc(C)c(NC(=O)C2CCCN2CCOC(=O)c2ccccc2)c(C)c1 (centres undefined)
 : -2	-5	1	-8	2	5	-1	-4	-1.5
- CN(C)c1oc(/C=C/c2ccccc2)nc1C#N
 : -5	-4	-2	4	2	-5	0	-2	-0.6
- CCCCOCCCN1CC(=O)N2[C@@H](Cc3c([nH]c4ccccc34)C2(C)C)C1=O
 : -3	4	2	-10	5	-1	1	-1	-2.1
- O=C(NCCNC1CCCCC1)c1ccco1
 : -6	-6	3	3	5	3	1	-2	-0.5
- c1ccc(-c2nc(CSc3n[nH]c(-c4cccs4)n3)cs2)cc1
 : -7	1	2	3	-3	-3	-2	-1	-3.0

# Rewritten with each value named: two of the compounds above
COc1ccc(OC)c2c(C)cc(C)nc12
  ARFGAP1 inhibitor: 2
  GC-B act: -1
  Rev-erbA mod: -1
  rCAG binder: 1
  ASAP1 GAP inh: 9
  mABHD4 FP: 2
  SMARCA2 act: 1
  GC-A act: 4
  PG9 binder: -1.5
Cc1cc(C)c2nc(NNC(=O)c3cc(-c4cccs4)nc4ccccc34)sc2c1
  ARFGAP1 inhibitor: 8
  GC-B act: 2
  Rev-erbA mod: 4
  rCAG binder: 37*
  ASAP1 GAP inh: -6
  mABHD4 FP: 10
  SMARCA2 act: -4
  GC-A act: 1
  PG9 binder: 1.6

# Next records
# Fields – ARFGAP1 inhibitor	GC-B act	Rev-erbA mod	rCAG binder	ASAP1 GAP inh	mABHD4 FP	SMARCA2 act	GC-A act	PG9 binder
- Cc1nn(Cc2ccc(Cl)cc2Cl)c(C)c1NC(=O)NC12CC3CC(CC(C3)C1)C2
 : -9	1	3	-4	-8	11	-4	-3	2.9
- O=C(COC(=O)/C=C/c1cccc(Cl)c1)NC1CC1
 : 3	3	-1	0	0	-6	-1	1	0.6
- CCCNC(=O)c1ccc(COc2ccc(C(C)(C)C)cc2)o1
 : -2	0	-2	-6	4	-15	0	4	1.4
- CCCn1c(SCC(=O)NC)nc2sc3c(c2c1=O)CCC3
 : 3	-1	-4	-3	-4	-1	0	-4	-1.0
- C[C@H](NC(=O)c1nc[nH]c1C(=O)NC1CCN(C(=O)OC(C)(C)C)CC1)C(=O)OC(C)(C)C
 : 7	6	-1	-3	1	5	1	2	-1.2
- O=[N+]([O-])c1c(Nc2ccccn2)cc(Cl)c2nonc12
 : 17	43*	-7	15	-12	37*	-1	50*	0.6
- O=C1NC2(CCCCCC2)C(=O)N1Cc1ccc(Cl)cc1Cl
 : 2	-2	-1	-2	5	2	6	-1	-0.4
- CCOC(=O)c1c(NC2OC(=O)c3c2ccc(OC)c3OC)sc(C(=O)OC(C)(C)C)c1C (centres undefined)
 : -2	2	-3	-4	-7	3	3	9	-0.1
- C[C@H](NC(=O)c1nc[nH]c1C(=O)N1CCc2ccccc2C1)C(=O)OC(C)(C)C
 : 2	-2	2	-8	-3	-3	0	-4	0.7
- CSCCC(Nc1ccc(S(=O)(=O)N2CCOCC2)cc1[N+](=O)[O-])C(=O)OCC(=O)NCC(C)C (centres undefined)
 : -1	6	4	1	0	-1	-1	3	-1.2
- O=C1C2CCCN2C(=S)N1c1ccccc1 (centres undefined)
 : 9	0	-2	0	4	2	-1	5	-0.5
- O=C(CSc1nc(C2CC2)n(-c2ccccc2)n1)NCc1ccco1
 : -11	0	4	-1	-11	-4	-4	0	-0.3
- C/C(=N\NC(=O)CN(c1ccc(C)cc1)S(C)(=O)=O)c1cccs1
 : -11	-4	-3	0	-9	0	-1	2	-1.4
- COc1cccc(/C=C/C(=O)OCC(=O)NC(=O)NC2CCCC2)c1
 : -18	-2	6	-1	5	-14	-2	0	-2.4
- O=C(CN1C(=O)S/C(=C\c2ccccc2)C1=O)Nc1cc([N+](=O)[O-])ccc1O
 : 5	-2	6	80*	11	4	0	4	-2.2
- Cc1nc(NC(=O)CN2CCOCC2)sc1-c1ccccc1
 : -18	-5	1	-1	0	-2	3	13	-1.1
- CC(C)CC(=O)Nc1ncc([N+](=O)[O-])s1
 : 1	2	-5	6	-6	4	-3	0	-0.3
- O=C(COC(=O)c1cccnc1Cl)Nc1cc(S(=O)(=O)N2CCCCCC2)ccc1Cl
 : -3	3	10	-5	15	-8	-2	-2	0.3
- Cc1ccc(SCCNC(=O)c2ccc(C)c([N+](=O)[O-])c2)cc1
 : 8	-8	1	0	4	-12	-5	0	-1.1
- COc1ccc(-c2cnnn2-c2ccc(NC(=O)/C=C/c3ccc(OC)c(OC)c3)cc2)cc1
 : 4	2	2	12	4	-36	-3	2	-1.1
- Cn1c(SCC(=O)N/N=C/c2ccc([N+](=O)[O-])s2)nnc1-c1ccccc1
 : 7	-7	-3	4	1	10	-2	2	-0.7
- Cc1ccc(Sc2ccc(CO)cc2[N+](=O)[O-])cc1
 : 3	2	1	-2	-3	-6	-5	4	0.8
- CC1CN(C(=O)CSc2nnc(-c3cccs3)n2N)CC(C)O1 (centres undefined)
 : -8	0	-7	2	-10	-3	0	2	-1.3
- CCCCOC(=O)Oc1ccc2c(=O)c(Oc3cccc(C)c3)coc2c1
 : -7	-1	1	-5	6	-8	2	11	-1.8
- O=C(COC(=O)c1ccccc1C(F)(F)F)NC(=O)NCc1ccco1
 : -10	-1	-1	2	-3	-3	-2	3	-2.4
- CC(C)=CCCC1(C)C=Cc2c(ccc3c2[nH]c2cc(O)c(C)cc23)O1 (centres undefined)
 : 10	0	6	51*	6	-7	0	-2	-3.8
- Cc1ccc(N2C(=O)C3CCCN3C2=S)cc1 (centres undefined)
 : -1	7	1	1	10	7	1	7	-2.9
- COc1ccc(N2CC(C(=O)N3CCN(C(=O)c4ccco4)CC3)CC2=O)cc1 (centres undefined)
 : 16	0	-5	3	7	5	-1	2	-2.3
- Cc1cccc(N2C(=O)CC(N3CCN(C(=O)c4ccccc4)CC3)C2=O)c1 (centres undefined)
 : 12	7	-4	-3	-12	2	-4	-4	1.6
- CCC1=NN(C(=O)c2ccc(C)cc2)C(O)(c2ccc(Br)cc2)C1 (centres undefined)
 : -3	4	-5	-1	7	2	3	2	-1.1
- CCCCCSc1nc(O)cc(=O)[nH]1
 : -14	5	-3	5	-6	3	0	2	-3.2
- CN(C)c1cc(Nc2cccc(O)c2)c([N+](=O)[O-])c2nonc12
 : -3	10	-5	4	-15	2	0	16	-0.6
- N=C1CCCC1C(=S)SCCC(N)=O (centres undefined)
 : 4	1	2	3	7	2	4	4	-0.7
- COc1ccc(/C(C)=N/NC(=O)c2ccc(NS(=O)(=O)c3cccs3)cc2)cc1
 : 7	-3	-7	16	-5	7	3	1	-0.2
- COc1ccc2cc3cc(C(=O)NCCN4CCc5ccccc5C4)sc3nc2c1
 : 6	1	-17	-2	-5	-9	-1	3	-0.8
- COc1ccc(/C=N/NC(=O)c2cccc(C(=O)N/N=C/c3ccc(OC)cc3)n2)cc1
 : -8	4	-4	2	-18	-12	0	0	1.4
- CC(C)(C)OC(=O)CNC(=O)c1[nH]cnc1C(=O)NC1CCNCC1
 : 5	3	-2	4	0	5	0	-2	1.2
- C=CCNC(=O)c1ccc(Sc2ccc(C)cc2)c([N+](=O)[O-])c1
 : 10	3	0	3	11	-1	1	0	0.6

# Bioassay records as filed in PubChem.
